2A firefly: Primary qHTS Assay for Foot and Mouth Disease Virus Antivirals against NCGC Sytravon and CBC Compound Libraries: Firefly Luciferase Signal. HEK cells with a luciferase reporter of 2A StopGo recoding. Potency, µM (doses to about 57.5 µM), inactives show at the top dose signal change, negative = less light. hit rate 0.23% among 120,000. AID 1745856, 2022; active = well fitted falling curve with a large enough effect; inconclusive = small, poorly fitted or top-dose-only effect; inactive = no such curve, though single readings can be large or run the other way; note: nearly all actives have a fitted effect of over 60% in size; overnight with compound
StopGo RLuc: Primary qHTS Assay for Foot and Mouth Disease Virus Antivirals against NCGC Sytravon and CBC Compound Libraries: Renilla Luciferase Signal | HEK cells with a luciferase reporter of 2A StopGo recoding | Potency, µM (highest dose often 57.5 µM), inactives show at the highest dose signal change, negative = less light | hit rate 0.32% among 120,000; active means well fitted falling curve with a large enough effect; inconclusive means small, poorly fitted or top-dose-only effect; inactive means no such curve, though single readings can be large or run the other way; note: nearly all actives have a fitted effect of over 55% in size; overnight with compound
Active calls of the source: *; ? = inconclusive; & = joins results of further samples; [ ] = dose if it differs, or a comment. % is set by controls: 0 for no effect and ±100 for the full control effect; potency is the fitted concentration of half-maximal effect.

Screens in order: 2A firefly | StopGo RLuc
#1 O=C(O)CNc1ccccc1
  0% | 4%
#2 COc1cccc(NC(=O)Cn2cnc3onc(-c4ccccc4F)c3c2=O)c1
  19% | 9%
#3 O=C(NCCCc1ccccc1)C12CC3CC(CC(C3)C1)C2
  0% | 18%
#4 COc1cccc(NC(=O)c2ccc(-c3nc(COc4ccc(C)cc4)c(C)o3)cc2)c1
  -12% | -2%
#5 CCOC(=O)c1ccoc1COC(=O)c1[nH]c(C)c(C(=O)OC)c1C
  0% | 11%
#6 Cc1ccc(NC(=O)Cc2coc3c(C)c(C)ccc23)c(C)c1
  4% | -8%
#7 O=C(Cn1cnc2onc(-c3ccc(F)cc3)c2c1=O)N1CCN(c2ccccc2F)CC1
  -9% | -10%
#8 CN(C)S(=O)(=O)N(CC(=O)Nc1ccc(F)cc1F)c1ccccc1
  44%[activator] | 57%[activator]
#9 Cc1cc2c(OCC(CNC(C)(C)C)OC(=O)c3ccccc3)cccc2[nH]1 (stereo not given)
  -15%[11.5 µM] | 0%
#10 COC(=O)CSc1nc2sc3c(c2c(=O)n1-c1ccccc1C)CC(C)(C)OC3
  -9% | -4%
#11 Cc1ccc(C2CCN(C(=O)c3cnn(-c4cccc(Cl)c4)c3C3CCN(C(=O)OC(C)(C)C)CC3)C2)cc1 (stereo not given)
  -20% | -10%
#12 CCn1nc(C(=O)Nc2ccc(OCC(N)=O)cc2)c2ccccc2c1=O
  61%[activator] | 0%
#13 N#Cc1ccc(C(=O)N(Cc2cccs2)C2CC2)cc1
  23% | 0%
#14 O=C1N(Cc2ccccc2)c2ccc(Cl)cc2C1(O)c1c[nH]c2ccccc12 (stereo not given)
  -12% | 5%
#15 CCOc1ccc(-n2cc(-c3ccccc3)c3c(N4CCN(c5ccccc5OC)CC4)ncnc32)cc1
  -19% | -9%

4 of the compounds above, field by field:
11: Cc1ccc(C2CCN(C(=O)c3cnn(-c4cccc(Cl)c4)c3C3CCN(C(=O)OC(C)(C)C)CC3)C2)cc1 (stereo not given)
  2A firefly: -20%
  StopGo RLuc: -10%

12: CCn1nc(C(=O)Nc2ccc(OCC(N)=O)cc2)c2ccccc2c1=O
  2A firefly: 61%[activator]
  StopGo RLuc: 0%

13: N#Cc1ccc(C(=O)N(Cc2cccs2)C2CC2)cc1
  2A firefly: 23%
  StopGo RLuc: 0%

14: O=C1N(Cc2ccccc2)c2ccc(Cl)cc2C1(O)c1c[nH]c2ccccc12 (stereo not given)
  2A firefly: -12%
  StopGo RLuc: 5%

(cont.)
Screens in order: 2A firefly | StopGo RLuc
#16 CC(NC(=O)c1cc(-c2ccccc2)n[nH]1)c1ccc(S(C)(=O)=O)cc1 (stereo not given)
  0% | -1%
#17 COc1ccc(NC(=O)c2cc(=O)c3cc(C)cc(C)c3o2)cc1
  -10% | -6%
#18 COc1ccc(OC)c(C2CC(=O)N(c3sc4c(c3C#N)CCCCC4)C3=C2C(=O)CCC3)c1 (stereo not given)
  18% | 22%
#19 Cc1cccc(N2CCN(c3nc4ccccc4nc3C(=O)OC(C)C)CC2)c1C
  99%[activator] | 15%
#20 O=C(Cn1nc(-c2cccs2)c2ccccc2c1=O)Nc1ccccc1
  7% | -9%
#21 O=C(Cc1ccc(F)cc1)NCCc1csc2nc(-c3ccc(Cl)cc3)nn12
  0% | -11%
#22 CC(C)Oc1ccccc1CN1C(=O)C(=O)c2ccccc21
  -1% | 73%[activator]
#23 CC(=O)N1CCc2nc3sc(C(=O)Nc4ccccc4F)c(N)c3c(C(F)(F)F)c2C1
  -3% | 4%
#24 O=C(Cn1nnc2sc3c(c2c1=O)CCCC3)OC1CCCC1
  15% | 9%
#25 COc1ccc(Nc2nc(N)c(C(=O)c3cc(C)ccc3C)s2)cc1
  3% | -12%
#26 CCCCc1ccc(NC(=O)c2ccc3c(c2)CCN3S(=O)(=O)CC)cc1
  8.9µM* | 25µM*
#27 Cc1ccc(NC(=O)CSCc2cc(=O)c3ccccc3[nH]2)c(C)c1
  ? | ?
#28 CN(C)CCCNc1nc(-c2ccco2)c2c(c1C#N)CCCC2
  -30% | -25%
#29 Cc1c(CCl)cc(C(=O)O)cc1CCl
  21% | 17%
#30 CCCCn1cc(S(=O)(=O)c2ccc(C)cc2)c(=O)c2cc(F)c(N3CCCCC3)cc21
  15% | -9%
#31 O=C(Nc1cc(Cl)ccc1F)C12CC3CC(CC(C3)C1)C2
  -12% | -7%
#32 CC(CNC(=O)c1ccc2nc(Cc3ccccc3)oc2c1)c1ccccc1 (stereo not given)
  6% | 12%
#33 CCn1c(CCNC(=O)c2ccccc2F)nnc1SCC(=O)N1CCc2ccccc21
  3% | -8%
#34 Cc1ccccc1/C=C(\C#N)c1nc2ccccc2[nH]1
  120%[activator] | 0%
#35 COC(=O)c1ccc(OC(=O)c2cc(Cl)ccc2Cl)cc1
  9% | 6%
#36 O=C(O)c1ccc(-c2ccc(Cl)c(Cl)c2)cc1F
  77%[activator] | -14%
#37 COc1cccc(CC(=O)N2CCN(CCC(=O)NC(N)=O)CC2)c1
  2% | -13%
#38 Cc1nn(-c2ccc(F)cc2F)c2c1C(C(=O)c1ccc(C(C)C)cc1)CC(=O)N2 (stereo not given)
  -5% | 1%
#39 COc1ccc(CCNc2nc(SCc3ccc(Cl)cc3)nc3ccccc23)cc1OC
  -9% | 7%
#40 Cc1ccc(NC(=O)CN2C(=O)C(C)(C)c3cc(S(=O)(=O)N4CCCCC4)ccc32)c(Br)c1
  -12% | 11%
#41 Cc1ccc(S(=O)(=O)/N=C/c2cccs2)cc1
  -7% | -8%
#42 CCOc1cccc(C(=O)Nc2ccc3oc(-c4cccnc4)nc3c2)c1
  10%&0% | -2%&-11%
#43 O=C(CCSc1nc(Cl)nc2nc[nH]c12)NCc1cccc(Cl)c1
  18% | 28%
#44 CN(C)CCCNc1oc(/C=C/c2cccs2)nc1C#N
  109%[activator] | -18%
#45 CCOC(=O)c1ccc(NC(=O)CCCc2nc(-c3cc(OC)c(OC)c(OC)c3)no2)cc1
  -15% | -5%
#46 CCS(=O)(=O)N(Cc1ccc(C)cc1)c1c(C)n(C)n(-c2ccccc2)c1=O
  -16% | -12%
#47 O=C(O)CS/C(=C/c1ccc2ccccc2c1)c1nc2ccccc2s1
  164%[activator] | 0%[1.06 µM]
#48 Cc1cc2oc(=O)cc(CN3CCCC(C)C3)c2cc1C (stereo not given)
  0% | 7%
#49 O=C(CCc1ncc(-c2ccc(F)cc2F)o1)Nc1ccc(Cl)cc1Cl
  55%[activator] | -4%
#50 N#Cc1c(Nc2cccc(F)c2)sc(C(=O)c2ccc(Cl)cc2)c1N
  0% | 13%
#51 CCCS(=O)(=O)N1CCC(N2CCN(Cc3ccc(C)cc3)C(=O)C2=O)CC1
  -5% | -1%
#52 O=C(CCCOc1ccccc1)OCC(=O)c1ccc(F)c(F)c1
  1% | -7%[1.06 µM]
#53 Cc1ccc2[nH]c(=O)c3cc(C(=O)NCCCN4CCC(C)CC4)sc3c2c1
  -14% | -4%
#54 CCCCOc1ccc(-c2cc3c(=O)n(CC(=O)Nc4ccc(Cl)cc4Cl)ccn3n2)cc1
  2% | -13%
#55 CCCn1c(=O)n(-c2ccccc2)c(=O)c2sc3ccccc3c21
  -3% | -10%
#56 Cc1ccc(-c2nnc3c4ccccc4c(C)nn23)cc1NC(=O)c1cccc(Br)c1
  20% | -8%
#57 CCCCCNC(=O)Cc1c[nH]c2ccccc12
  18% | 10%
#58 CCCn1c(SCC(=O)Nc2ccc(F)c(F)c2)nc(O)cc1=O
  -5% | -15%
#59 COc1ccc(NC(=O)c2ccco2)cc1NC(=O)c1ccc(C#N)cc1F
  0% | 4%
#60 Cc1ccc(CN2CCCn3nc(C(=O)NC(C)C)cc3C2=O)cc1
  9% | 19%
#61 O=C(OCCN1CCN(C2CN(Cc3cn(Cc4cccc(F)c4)nn3)S(=O)(=O)C2)CC1)c1cc2ccccc2o1 (stereo not given)
  15% | 7%
#62 COc1cc(N2CC(C(=O)O)CC2=O)cc(OC)c1OC (stereo not given)
  -9% | -10%
#63 CC(Nc1ccc(N2CCOCC2)cc1)c1nc2scc(-c3cccs3)c2c(=O)[nH]1 (stereo not given)
  7% | -9%
#64 Cc1ccc(-n2nc(CO)c(C(=O)NCCO)n2)cc1
  79%[activator] | 4%
#65 COc1ccccc1C(=O)Nc1ccc(OCC(=O)NCc2cccs2)cc1
  43%[activator] | 32%[activator]
#66 Cc1nc(-c2ccc(OC(F)(F)F)cc2)sc1C(=O)N1CCC2(CC1)OCCO2
  99%[activator] | 13%
#67 Fc1ccc(-c2ccc(CNCC3CCNCC3)o2)cc1Cl
  0% | 0%
#68 Cc1c(O)ccc2c(CN(C)CC(=O)Nc3ccc(Cl)cc3)cc(=O)oc12
  5% | 87%[activator]
#69 O=C(CNC(=O)c1cc(F)cc(F)c1)NCCN1CCc2ccccc2C1
  -12% | -22%
#70 COc1cc(NC(=O)CCc2c(C)c3ccc(O)cc3oc2=O)cc(OC)c1
  0% | 53%[activator]
#71 N=c1c(C(=O)NCC2CCCO2)cc2c(=O)n3ccccc3nc2n1CCCO (stereo not given)
  -20% | 2%
#72 O=C(CCSCc1ccc(Cl)cc1)NCCc1ccccc1
  -2% | -8%
#73 COc1ccc(OC)c(NC(=O)c2nnn(CC(=O)Nc3ccc(C(C)C)cc3)c2N)c1
  15% | -1%
#74 Cc1cc(C)n2nc(C(=O)Nc3cccc(Cl)c3C)nc2n1
  12% | -7%
#75 Cc1ccc(CCNC(=O)c2ccc3c(c2)nc2n3CCCCC2)cc1
  23% | -13%

A draw from above in order of count of non-hydrogen atoms, rising:
Screens in order: 2A firefly | StopGo RLuc
#74 Cc1cc(C)n2nc(C(=O)Nc3cccc(Cl)c3C)nc2n1
  12% | -7%
#75 Cc1ccc(CCNC(=O)c2ccc3c(c2)nc2n3CCCCC2)cc1
  23% | -13%
#69 O=C(CNC(=O)c1cc(F)cc(F)c1)NCCN1CCc2ccccc2C1
  -12% | -22%
#66 Cc1nc(-c2ccc(OC(F)(F)F)cc2)sc1C(=O)N1CCC2(CC1)OCCO2
  99%[activator] | 13%
#63 CC(Nc1ccc(N2CCOCC2)cc1)c1nc2scc(-c3cccs3)c2c(=O)[nH]1 (stereo not given)
  7% | -9%
#73 COc1ccc(OC)c(NC(=O)c2nnn(CC(=O)Nc3ccc(C(C)C)cc3)c2N)c1
  15% | -1%

Remaining list, next part:
Screens in order: 2A firefly | StopGo RLuc
#76 Cc1cc(NCc2cccnc2)n2ncc(-c3ccccc3)c2n1
  195%[activator] | 10%
#77 Cc1cc(C)c(S(=O)(=O)Nc2ccc(-c3ccc(N4CCCCC4)nn3)cc2)cc1C
  88%[activator] | 383%[activator]
#78 Clc1cccc(Nc2nc3nonc3nc2N2CCCCC2)c1
  ? | 6.3µM*
#79 Cc1ccc2c(c1)NC(=O)c1cccnc1O2
  31%[activator] | -7%
#80 Cn1c(=O)c2c(-c3ccccc3Br)n(Cc3ccccc3)cc2n(C)c1=O
  -29% | -14%
#81 COc1ccc(NC(=O)N(Cc2nnc3n2CCCCC3)c2ccc3c(c2)OCO3)cc1
  -6% | -5%
#82 Cc1ccc2c(Sc3ccc(Cl)cc3)c(C(=O)N3CCCCC3)[nH]c2c1
  0% | 327%[activator]
#83 COc1ccccc1Nc1nc(-c2ccc3c(c2)CCC(=O)N3)cs1
  76%[activator] | 15%
#84 Cc1ccc(NC(=O)Cc2nc(-c3c(N)n(CC(C)C)c(=O)n(C)c3=O)cs2)cc1
  8% | -18%
#85 Cc1cccc(Cn2c(-c3cccs3)nc3ccccc32)c1
  32%[activator] | 3%
#86 Cc1ccc(-c2c(NC(=O)CN3CCN(CCO)CC3)oc3ccccc3c2=O)cc1
  62%[activator] | -11%
#87 COc1cccc(C(=O)Nc2oc3ccccc3c(=O)c2-c2ccc3c(c2)OCO3)c1
  101%[activator] | 58%[activator]
#88 CCOc1cc(C(c2c(C)[nH]c3ccccc23)c2c(C)[nH]c3ccccc23)ccc1O
  ? | -26%
#89 Nc1nc(Nc2ccccc2F)sc1C(=O)c1ccc(Cl)cc1
  170%[activator] | 11%
#90 O=C(Cn1cnc2ccccc2c1=O)N(Cc1cccs1)c1ccc2c(c1)OCCO2
  11% | 8%
#91 Fc1ccc(-c2nc(COc3ccc(Oc4ccccn4)cc3)co2)cc1
  37%[activator] | 40%[activator]
#92 CCCN(CCC)C(=O)CN1C(=O)CSc2ccc(S(=O)(=O)N3CCC(C)CC3)cc21
  -18% | -5%
#93 COC(=O)C(C)Oc1ccc2c(C)c(-c3ccc(OC)cc3)c(=O)oc2c1 (stereo not given)
  33%[activator] | 13%
#94 COc1ccccc1-n1c(=O)n(C)c2c(C(N)=O)nc(-c3cccc(OC)c3OC)nc21
  22% | 27%
#95 O=C(Nc1ccccc1OCc1cc(=O)n2ccccc2n1)c1ccccc1F
  -21% | -10%
#96 CCCCn1nc(C(=O)NC(C)c2ccc3c(c2)OCCO3)c2ccccc2c1=O (stereo not given)
  2% | 101%[activator]
#97 COC(=O)C(NC(=O)CCc1c(C)nc2c(c(C)nn2-c2ccccc2)c1C)C(C)C (stereo not given)
  2% | 25%
#98 CCn1c2c(c(=O)[nH]c1=O)C(c1cccc(F)c1)C1=C(COC1=O)N2 (stereo not given)
  11% | 7%
#99 COC(CN(C)C(=S)NCC(=O)O)OC
  ? | 2%
#100 N#Cc1nc(/C=C/c2ccccc2)oc1N1CCCCC1
  86%[activator] | 20%
#101 COCC(=O)N1CCN(c2oc(-c3ccc(C)cc3)nc2S(=O)(=O)c2ccc(F)cc2)CC1
  -7% | 5%
#102 CCc1ccc(CNC(=O)c2cc3c(=O)n(CC)c4ccccc4c3s2)cc1
  0% | -3%
#103 COc1ccc(CCNC(=O)CN2C(=O)COc3ccccc32)cc1OC
  20%&-3% | 5%&-3%
#104 CCC(CC)C(=O)Nc1ccc2nc(SCc3ccccc3)sc2c1
  0% | 31%

Compound activity from PubChem.
